Source: PubChem (Fisher Drug Discovery Resource Center)
NPYLR7 agonist = activates Aedes aegypti NPYLR7 receptor | hit rate 0.15% among 270,000 | HEK293T NPYLR7/Galpha15, GCaMP6s calcium fluorescence | activation, % at 10 µM; in the data active = activation above about 40%;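 also: 0% = vehicle and 100% = reference agonist at the receptor; some compounds past the cut are filed as inactive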
NPYLR7 agonist max-min = further read-out of NPYLR7 agonist, marked with its call; activation, %; measured here: Max-Min RFU normalised activation; some inactives read as strong as hits;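 span of the calcium signal over five minutes; 0% = vehicle and 100% = native peptide agonist; compound fluorescence can raise it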
An asterisk follows results filed as active; & = joins results of further samples.

SMILES | NPYLR7 agonist | NPYLR7 agonist max-min
CC1C(=O)N(c2cccc(C(F)(F)F)c2)CCN1C(=O)Nc1cccc(Cl)c1 (stereo not drawn) | 1 | 4
COc1ccc(-c2cc3nc(C)cc(N4CCCCC4)n3n2)cc1OC | 1 | 8
CSc1ncc(CN2CCc3c([nH]c4ccccc34)C2C(C)(C)C)cn1 (stereo not drawn) | 6&-13 | 0&-16
COCCN(Cc1nc(C(=O)N2CCN(c3cccc(C(F)(F)F)c3)CC2)cs1)C(=O)Nc1c(C)cccc1C | 22 | 22
CCOc1ccccc1-c1noc(Cn2c(=O)n(CCCOC)c(=O)c3ccccc32)n1 | 0 | -3
CCOC(=O)C1C(c2ccc(Cl)cc2)C(C#N)C(SC)=NC1(O)c1ccccc1 (stereo not drawn) | 2 | -2
CCOc1ccccc1CNCc1cnc(SC)nc1N1CCCC1 | 20 | 22
Cn1c(=O)c2c(SCc3ccccc3)nc(C3CC3)nc2n(C)c1=O | 6 | 9
COc1cccc(N2CCN(C(=O)c3cccc(F)c3)C(C)C2=O)c1 (stereo not drawn) | 8 | 7
COC(=O)CN(C#N)c1nc(NCc2ccccc2)nc(OC)n1 | -1 | -3
COc1ccc(CN(Cc2cccn2Cc2ccccc2F)C(C)C(C)C)cc1 (stereo not drawn) | 0 | 12
O=C(CS(=O)(=O)c1ccc(F)cc1)N(Cc1ccccn1)c1nc2ccccc2s1 | -6 | -11
CCCc1cc(=O)n(CC(=O)NC2CCCCC2)c(-n2nc(C)cc2C)n1 | 8 | 13
CCN(CC)S(=O)(=O)c1ccc2c(c1)nc(SCc1cc(OC)c(OC)cc1F)n2C(C)C | 22 | 13
CCN(C(=O)c1cc(-c2ccccc2)nc2c1cnn2CC)C1CC1 | 11 | 9
COCCN(Cc1cccs1)C(=O)c1cnc2ccccn2c1=O | -1 | -5
COc1cccc(-c2cc(C(=O)N3CCN(Cc4ccccc4)CC3)nc3cc(C(C)(C)C)nn23)c1 | 11 | 16
O=C(c1ccc2oc(CCc3ccccc3)nc2c1)N1CCCC1c1ccccn1 (stereo not drawn) | 7 | 4
O=C1CCCC(=O)C1CC1C(=O)CCCC1=O | -1 | 0
CC(NC(=O)Nc1cnc(C(C)(C)C)nc1)c1ccc(F)cc1F (stereo not drawn) | 2 | 3
Cc1noc(C)c1NC(=O)c1cccc(CN(C)C(C)c2ccco2)c1 (stereo not drawn) | -3 | -11
Cc1cccc(C(=O)N(CCCN(C)C)CC2CCN(C3Cc4ccccc4C3)CC2)c1 | 1 | -1
CN(Cc1cn[nH]c1-c1ccc(F)cc1)C(=O)c1ccc(-n2cnnc2)cc1 | 2 | -1
Clc1ccc(COC(Cn2ccnc2)c2ccc(Cl)cc2Cl)cc1 (stereo not drawn) | -4&-12&-14&1 | -10&-4&-18&-2
COc1ccc(-c2nc3cccc(C)n3c2NC(C)(C)C)cc1 | 2 | 13

Later entries
SMILES | NPYLR7 agonist | NPYLR7 agonist max-min
Cc1cc(C)c(-c2cncc(C(=O)N3CCCCC3)n2)c(C)c1 | -2 | -3
O=C(c1ccc(Cl)cc1)N1CCCC(OCc2ccccc2)C1 (stereo not drawn) | 1 | 10
CC(C)c1nnsc1CNC(=O)c1ccc(CSc2ncccn2)o1 | 4 | -4
CCc1noc(Cn2nc(C)c(C)c(C#N)c2=O)n1 | 3 | 2
Cn1cnnc1CCNC(=O)c1cc(Cl)ccc1OC1CCCC1 | 1 | -4
C=CCN1CCN(c2cc(C)ccc2F)C(=O)C1C (stereo not drawn) | -1 | 2
c1cc(CN2CCOCC2)cc(-c2ccc(NC3CCCC3)nn2)c1 | 10 | 0
NC(=O)c1noc(CN2CCCCC2CCN2CCOCC2)n1 (stereo not drawn) | -1 | -2
C=CCN1C(=O)NC(c2cccc(Cl)c2)C2=C1CN(CC(=O)NC1CCCc3ccccc31)C2=O (stereo not drawn) | -3 | 0
O=C(c1cccc(-c2ccc(O)cc2)c1)N1[C@@H]2CC[C@H]1CC(O)C2 (stereo partly drawn) | -1 | -5
CCc1nc2ccc(C(=O)Nc3cc(-c4ccccc4)ccc3OC)cn2c1N(C)CCN1CCOCC1 | 15 | 12
COCCN(CC(=O)N1CCc2sccc2C1c1ccc(Cl)cc1Cl)S(=O)(=O)c1ccc(F)cc1 (stereo not drawn) | -6 | 4
Cc1ccc(C(=O)Nc2ccc(N3CCCC3)c(C(=O)NCC3CCCO3)c2)cc1[N+](=O)[O-] (stereo not drawn) | -9 | -8
Cc1nc(N=Nc2ccc(S(=O)(=O)O)cc2S(=O)(=O)O)c(COP(=O)(O)O)c(C=O)c1O | 0 | -2
O=C(Nc1cccc(-c2nc3ccccc3o2)c1)c1cc([N+](=O)[O-])ccc1Cl | -14 | -22
Cn1cnnc1SCC#CCO | 1 | 5
COC(=O)c1cc(C(C)C)nc2c1c(-c1ccccc1)nn2C1CCS(=O)(=O)C1 (stereo not drawn) | 10 | 3
CCCCN(C)S(=O)(=O)NC(C)Cc1ccco1 (stereo not drawn) | -3 | -6
CC(SCc1nn(-c2ccc(F)cc2)c2c1CCC2)C(N)=O (stereo not drawn) | 6 | 3
Fc1ccc(Cn2ncc3c2CN(c2nnnn2-c2ccccc2)C3)cc1 | 28 | 12
C=CCOC1C[C@](OCc2ccc(F)cc2)(C(=O)NCC2CCCO2)C[C@H]2OC(C)(C)O[C@@H]12 (stereo partly drawn) | 1 | 8
CCOC(=O)c1nn(C)c2c1CNCC2 | 2 | 0
Cc1ccc(N(C)CCn2c(C)csc2=O)c(C)c1 | 0 | -2
CCn1nnc2c(=O)n(C)cnc21 | 0 | 8
COc1ccccc1Oc1ncccc1CNC(=O)c1cscn1 | 8 | 4

Copied from the list.
NPYLR7 agonist with Cn1cnnc1CCNC(=O)c1cc(Cl)ccc1OC1CCCC1 is entered as 1
NPYLR7 agonist with COc1ccc(CN(Cc2cccn2Cc2ccccc2F)C(C)C(C)C)cc1 (stereo not drawn) is entered as 0
NPYLR7 agonist with CC1C(=O)N(c2cccc(C(F)(F)F)c2)CCN1C(=O)Nc1cccc(Cl)c1 (stereo not drawn) is entered as 1

Entries listed so far that contain a Cl atom:
SMILES | NPYLR7 agonist | NPYLR7 agonist max-min
CC1C(=O)N(c2cccc(C(F)(F)F)c2)CCN1C(=O)Nc1cccc(Cl)c1 (stereo not drawn) | 1 | 4
CCOC(=O)C1C(c2ccc(Cl)cc2)C(C#N)C(SC)=NC1(O)c1ccccc1 (stereo not drawn) | 2 | -2
Clc1ccc(COC(Cn2ccnc2)c2ccc(Cl)cc2Cl)cc1 (stereo not drawn) | -4&-12&-14&1 | -10&-4&-18&-2
O=C(c1ccc(Cl)cc1)N1CCCC(OCc2ccccc2)C1 (stereo not drawn) | 1 | 10
Cn1cnnc1CCNC(=O)c1cc(Cl)ccc1OC1CCCC1 | 1 | -4
C=CCN1C(=O)NC(c2cccc(Cl)c2)C2=C1CN(CC(=O)NC1CCCc3ccccc31)C2=O (stereo not drawn) | -3 | 0
COCCN(CC(=O)N1CCc2sccc2C1c1ccc(Cl)cc1Cl)S(=O)(=O)c1ccc(F)cc1 (stereo not drawn) | -6 | 4
O=C(Nc1cccc(-c2nc3ccccc3o2)c1)c1cc([N+](=O)[O-])ccc1Cl | -14 | -22

New compounds follow
SMILES | NPYLR7 agonist | NPYLR7 agonist max-min
COc1ccccc1CN(CC(=O)N(CCc1c[nH]c2ccccc12)Cc1ccc(C(C)(C)C)cc1)CC(C)C | 9 | 1
COc1ccccc1CN1CCn2nc(C(=O)NCCCc3ccccc3)cc2C1=O | 3 | 8
CSc1ccccc1NC(=O)CCC(=O)N1CCC[C@H]1CO | -6 | -9
CCC(NC(C)c1ccc(C(F)(F)F)cc1)C(N)=O (stereo not drawn) | -8 | -9
c1ccc2c(c1)nc1n2CN(CC2CCCO2)CN1 (stereo not drawn) | 3 | -2
CC(C)OC(=O)Cn1cnc([N+](=O)[O-])n1 | 7 | 3
COc1cc(CN2C(=O)C(C)Sc3ccc(C#N)cc32)cc(OC)c1 (stereo not drawn) | 5 | 1
c1ccc(C2CCCCN2Cc2nc(-c3cnccn3)no2)nc1 (stereo not drawn) | 1 | -5
CCn1c(C2CCN(C(=O)Cc3cn4ccsc4n3)CC2)n[nH]c1=O | 3 | 6
CC(=O)c1ccc(NC(=O)c2cnn3c(C(F)(F)F)cc(-c4ccc(F)cc4)nc23)cc1 | -6 | -11
COCCC(=O)Nc1ccc2c(c1)CN(CCC(C)c1ccc(C)o1)CC2 (stereo not drawn) | 11 | 6
COc1cccc(-c2cc(-c3ccc(C(=O)NCCF)cc3)[nH]n2)c1 | 13 | 10
Cc1cc(CC(C)NS(=O)(=O)NCc2ccccc2)n[nH]1 (stereo not drawn) | -5 | -4
Cc1nc(CCNC(=O)c2ccccc2NCc2sccc2C)cc(=O)[nH]1 | 0 | -10
CCCn1ccnc1SC(C)C(=O)NC(N)=O (stereo not drawn) | 1 | 3
COC(=O)C1C(C)=NC2=C(C(=O)CC(C)(C)C2)C1c1ccsc1 (stereo not drawn) | 7 | 2
O=S(=O)(Nc1cccc2cccnc12)c1ccc(Br)cc1Cl | -1 | 62
COc1ccc(Cl)cc1C(=O)NCCNc1ccc(Nc2cc(C)ccn2)nn1 | 11 | 2
COc1ccc(OC)c(CN2CCCn3cccc3C2c2ccc(OC)c(OC)c2)c1 (stereo not drawn) | 19 | 17
Cn1cnc(S(=O)(=O)Nc2ccc3c(c2)Cc2ccccc2-3)c1Cl | 3 | 4
c1cncc(-c2nc3c(c(NCCC45CCCN4CCC5)n2)CCNC3)c1 | -16 | -13
CN(c1ncccc1C(=O)N1[C@@H]2CC[C@H]1CNC(=O)C2)C1CCCCC1 | 1 | -1
NC(=O)C(Sc1nnc(N2CCCC2)n1-c1cccc(Cl)c1)c1ccccc1 (stereo not drawn) | 6 | 6
COCCCN(Cc1nc2scc(-c3cc(C)ccc3C)c2c(=O)[nH]1)CC(O)Cc1ccccc1 (stereo not drawn) | 13 | 14
Cc1cc(C)c(NC(=O)CNC(=O)CNC(=O)C(C)(C)C)c(C)c1 | -15 | -15

Continuation.
SMILES | NPYLR7 agonist | NPYLR7 agonist max-min
O=C(NCCC1=CCCCC1)c1ccc(-c2ccc3c(c2)OCCO3)s1 | 3 | 3
O=C(NC1CCN(c2ccccc2C(=O)NCC2CCCO2)CC1)c1ccc(Cl)cc1 (stereo not drawn) | -14 | -11
Cc1cc(Cn2c(S(C)(=O)=O)nc3ccccc32)no1 | 12 | 7
Cc1ccc(CN(Cc2nnsc2Cl)C(C)C)o1 | 4 | 4
CC(C)Cc1c2c(nc3sc4c(c13)NC1(CCCCC1)NC4=O)CCCC2 | 6 | 4
COc1ccc(CNC2CCCC2)cc1-c1ccc(O)cc1 | -3 | -4
CN1CCN(c2ncccc2CNC(=O)C2(c3ccccc3)CC2(C)C)CC1 (stereo not drawn) | -1 | -5
O=c1oc2ccccc2cc1S(=O)(=O)c1ccc(Cl)cc1 | 4 | 1
O=C(CSc1nnc2sc3ccccc3n12)Nc1ccc2ccccc2c1 | -6 | -7
Cc1noc(C)c1N(C)C(=O)c1cccc2ncccc12 | -2 | -3
CCc1cnc(C)nc1N1CCCC(Cc2cccnc2)C1 (stereo not drawn) | -2 | -6
O=C(CNC(=O)C(c1ccccc1)c1ccccc1)N=Nc1c(O)n(CCc2ccccc2)c2ccccc12 | -12 | -15
Cc1cc(N2CCN(CC3=NS(=O)(=O)c4ccccc4N3)CC2)nc(C(C)C)n1 | 8 | 5
CC(C)Oc1ccccc1-c1cccc(CN2CCOCC2)c1 | -2 | 2
O=C(Nc1sc2c(c1C(=O)O)CCC2)c1cccs1 | 0 | 0
O=c1c(=O)n(-c2cccc3ccccc23)ccn1Cc1ccccc1 | 11 | 6
O=C(CCn1nnc(-c2ccccc2)n1)N1CCCC(N2CCCC2=O)C1 (stereo not drawn) | -5 | -9
CCc1nnsc1-c1nc(C2CC2)nn1-c1ccccc1 | -4 | -7
CCCCCCc1cc2cc(-c3csc(Nc4ccc(F)cc4)n3)c(=O)oc2cc1O | -7 | -13
C=CCN(CC=C)c1cc(Cl)nc(SCC(=O)O)n1 | -4 | -12
O=C(c1cccc2cc[nH]c12)N1CCN(Cc2cccc(-c3noc(-c4cccc(C(F)(F)F)c4)n3)c2)CC1 | 33 | 21
CCC(=O)N(CCOC)CC(=O)N(Cc1ccc2c(c1)OCO2)Cc1sccc1C | -7 | 3
CN1C(=O)C(=Nc2sc3c(c2C#N)CCCC3)c2ccccc21 | 8 | 4
COc1ccc(OC2CCN(C3CCCC3)CC2)c(C(=O)NCCn2ccnc2C)c1 | -1 | 0
Cc1ccccc1-c1ncc(CNCCc2ccccn2)s1 | 17 | 0

The list continues:
SMILES | NPYLR7 agonist | NPYLR7 agonist max-min
Fc1cnccc1-c1nc(C2CCOC2)no1 (stereo not drawn) | -4 | -9
COc1cccc(C(=O)C(C#N)=Cc2ccccc2OC(F)F)c1 | -1 | 5
CN(C)Cc1cccc(N=C(c2ccccc2)c2c(O)[nH]c3cc(C(=O)N(C)C)ccc23)c1 | -9 | -15
CC1C(=O)N(c2ccc([N+](=O)[O-])cc2)CCN1C(=O)C1CC1 (stereo not drawn) | 0 | 2
O=C1C(=O)N(CN2CCN(Cc3ccsc3)CC2)c2cc(N3CCCC3)ccc21 | -5 | -5
COC(=O)c1ccc(C2Oc3ccccc3CN2C2CCCCC2)cc1 (stereo not drawn) | 4 | 5
Cc1cccc(C)c1C1c2cccn2CCCN1Cc1ccc(F)cc1F (stereo not drawn) | 15 | 23
Cc1c(C)c(C)c(S(=O)(=O)Nc2c(C(=O)N3CCOCC3)oc3ccccc23)c(C)c1C | -3 | 0
Cc1ccc(F)c(S(=O)(=O)N2CCCC(N3C(C)CCC3C)C2)c1 (stereo not drawn) | -4 | 56
COc1cc(=O)n(-c2ccccc2)nc1C(=O)Nc1ccccc1C | 3 | 1
COc1cn(CC(=O)NC2CCCC2)c(CN2CCCCCC2)cc1=O | 0 | -1
Cn1nc(-c2ccncc2)cc1NCc1ccc(OC(F)F)cc1 | -10 | 381

An excerpt; the hit share may differ from the screen's.
